HIV Env fusion – HIV envelope-mediated fusion inhibition; hit rate 1.1% among 360,000; inhibition, % at 12.3 µM; HeLa-JRFL Env/CEM21 cell fusion, luciferase;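 active means mean replicate inhibition score of at least 50 and every replicate individually at or above 50; inconclusive means only one of the two criteria met; inactive means mean below 50 and not all replicates reaching 50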;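 further: 0% = plate neutral controls and 100% = maraviroc near 300 nM; one replicate is shown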
Yeast UUG start – alters start codon recognition fidelity in yeast. activity score, % at 18.7 µM. hit rate 0.13% among 350,000. AID 602363. S. cerevisiae UUG-firefly luciferase reporter, luminescence/redox ratio;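 active means replicate mean at a twofold rise or more, about +100% in these data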;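 further: firefly luciferase made from a UUG start codon reports start codon fidelity; reporter light over untreated wells divided by growth signal over untreated wells; some hits fall short of that in this replicate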
An asterisk follows results filed as active; ? = inconclusive; [ ] = remark or other dose. Some of the compounds tested; count on the stated rates, not on these rows.

structure | HIV Env fusion | Yeast UUG start
C[C@@H]1CN([C@@H](C)CO)C(=O)c2cccc(NC(=O)C3CCOCC3)c2O[C@@H]1CN(C)Cc1ccc(Oc2ccccc2)cc1 | 8[16.7 µM] | 13
O=C(C[C@@H]1CC[C@H](NC(=O)Nc2ccccc2)[C@H](CO)O1)NCc1cccc(F)c1 | 14[16.7 µM] | 5
C[C@@H]1CN([C@@H](C)CO)C(=O)c2cc(-c3ccccc3)cnc2O[C@H]1CN(C)C | 7[16.7 µM] | -5
Cc1noc(C)c1NC(=O)N(C)C[C@H]1OCCCC[C@H](C)Oc2ccc(NC(=O)c3ccccc3)cc2C(=O)N([C@@H](C)CO)C[C@H]1C | 24[16.7 µM] | -9
C[C@H](CO)N1C[C@H](C)[C@H](CN(C)C)OCCCC[C@H](C)Oc2ccc(NS(C)(=O)=O)cc2C1=O | 3[16.7 µM] | 4
C/C=C/c1ccc2c(c1)O[C@H](CN(C)C(=O)Nc1ccc(F)cc1)[C@@H](C)CN([C@H](C)CO)S2(=O)=O | -4[16.7 µM] | -3
N#C[C@@H]1[C@H](c2ccc(-c3cccc(F)c3)cc2)[C@@H](CO)N1C(=O)c1cccnc1 | ? | -10
Cc1ccc(S(=O)(=O)N(C)C[C@@H]2OCCCC[C@@H](C)Oc3ccc(NC(=O)Nc4cccc5ccccc45)cc3C(=O)N([C@@H](C)CO)C[C@H]2C)cc1 | -52[16.7 µM] | -1
Cc1noc(C)c1S(=O)(=O)Nc1ccc2c(c1)C(=O)N([C@H](C)CO)C[C@H](C)[C@@H](CN(C)S(C)(=O)=O)OCCCC[C@@H](C)O2 | -4[16.7 µM] | -9
C[C@@H]1CN([C@@H](C)CO)C(=O)c2cc(NS(=O)(=O)c3ccc(F)cc3)ccc2O[C@@H]1CN(C)S(=O)(=O)c1ccc(Cl)cc1 | 29[16.7 µM] | 11
CN(C)C(=O)C[C@H]1CC[C@@H]2[C@H](COC[C@H](O)CN2S(=O)(=O)c2ccccc2Cl)O1 | -3[16.7 µM] | -8
Cc1ccccc1-c1cnc2c(c1)C(=O)N([C@@H](C)CO)C[C@@H](C)[C@H](CN(C)C(=O)c1cccnc1)O2 | 20[16.7 µM] | 0
CCC(=O)N(C)C[C@@H]1Oc2cc(-c3ccncc3)ccc2S(=O)(=O)N([C@@H](C)CO)C[C@@H]1C | -30[16.7 µM] | 14
C[C@H](CO)N1C[C@H](C)[C@@H](CN(C)Cc2ccc(-c3ccccc3)cc2)Oc2ccc(NC(=O)Nc3ccc(F)cc3)cc2CC1=O | 31[16.7 µM] | 2
C[C@H](CO)N1C[C@H](C)[C@H](CN(C)Cc2ccccc2)Oc2ccc(NC(=O)Nc3ccccc3)cc2C1=O | -4[16.7 µM] | 19
O=C(N[C@H]1CC[C@H](CCNS(=O)(=O)Cc2ccccc2)O[C@@H]1CO)c1ccc2c(c1)OCO2 | -11[16.7 µM] | 6
CO[C@@H]1CN(C)C(=O)c2cc(NS(=O)(=O)c3ccc(Cl)cc3)ccc2OC[C@H](C)N(C)C[C@@H]1C | 12[16.7 µM] | 1
CC(C)NC(=O)Nc1cccc2c1O[C@@H](CN(C)C(=O)NC1CCCCC1)[C@@H](C)CN([C@H](C)CO)C2=O | -10[16.7 µM] | 7
C[C@@H]1CCCCO[C@H](CN(C)C(=O)C2CCCCC2)[C@@H](C)CN([C@@H](C)CO)C(=O)c2cc(NC(=O)c3ccncc3)ccc2O1 | -6[16.7 µM] | 6
N#C[C@H]1[C@H](c2ccc(C#CC3CC3)cc2)[C@@H](CO)N1C(=O)c1cccc(F)c1 | 4[16.7 µM] | 14

At a glance, 5 of the compounds above:
structure | HIV Env fusion | Yeast UUG start
C[C@@H]1CN([C@@H](C)CO)C(=O)c2cccc(NC(=O)C3CCOCC3)c2O[C@@H]1CN(C)Cc1ccc(Oc2ccccc2)cc1 | 8[16.7 µM] | 13
O=C(C[C@@H]1CC[C@H](NC(=O)Nc2ccccc2)[C@H](CO)O1)NCc1cccc(F)c1 | 14[16.7 µM] | 5
C[C@@H]1CN([C@@H](C)CO)C(=O)c2cc(-c3ccccc3)cnc2O[C@H]1CN(C)C | 7[16.7 µM] | -5
Cc1noc(C)c1NC(=O)N(C)C[C@H]1OCCCC[C@H](C)Oc2ccc(NC(=O)c3ccccc3)cc2C(=O)N([C@@H](C)CO)C[C@H]1C | 24[16.7 µM] | -9
C[C@H](CO)N1C[C@H](C)[C@H](CN(C)C)OCCCC[C@H](C)Oc2ccc(NS(C)(=O)=O)cc2C1=O | 3[16.7 µM] | 4

(more compounds)
structure | HIV Env fusion | Yeast UUG start
C[C@H](O)C#Cc1cnc2c(c1)C(=O)N([C@@H](C)CO)C[C@@H](C)[C@@H](CN(C)Cc1cccc(F)c1)O2 | 0[16.7 µM] | -6
COc1ccc(S(=O)(=O)N(C)C[C@@H]2Oc3ccc(NC(=O)CCCCCC(=O)Nc4ccccc4N)cc3CC(=O)N([C@H](C)CO)C[C@@H]2C)cc1 | ? | 13
C[C@H]1CN([C@@H](C)CO)C(=O)c2cc(-c3ccccc3)cnc2O[C@@H]1CN(C)C(=O)NC1CCCC1 | -9[16.7 µM] | -4
COCC(=O)Nc1ccc2c(c1)C(=O)N(C)[C@@H]1CC[C@H](CC(=O)NCc3ccc(OC)cc3)O[C@@H]1CO2 | -12[16.7 µM] | -5
CC(C)NC(=O)N(C)C[C@H]1OCCCC[C@@H](C)Oc2ccc(NC(=O)NC3CCCCC3)cc2C(=O)N([C@H](C)CO)C[C@H]1C | -15[16.7 µM] | 10
C[C@H](CO)N1C[C@H](C)[C@H](CN(C)C(=O)Nc2ccc(F)cc2)OCCCC[C@H](C)Oc2ccc(NC(=O)Nc3cccc4ccccc34)cc2C1=O | -25[16.7 µM] | -18
COc1ccc(CN(C)C[C@H]2Oc3c(NC(=O)Nc4ccccc4)cccc3C(=O)N([C@@H](C)CO)C[C@@H]2C)cc1 | 7[16.7 µM] | 22
COc1ccccc1NC(=O)N[C@@H]1C=C[C@@H](CC(=O)N2CCC(Cc3ccccc3)CC2)O[C@H]1CO | 24[16.7 µM] | 42
COc1ccccc1S(=O)(=O)N[C@@H]1CC[C@H](CCNC(=O)C2CC2)O[C@@H]1CO | 9[16.7 µM] | 1
CC(C)CC#Cc1ccc2c(c1)O[C@H](CN(C)C(=O)Nc1ccccc1)[C@H](C)CN([C@@H](C)CO)S2(=O)=O | -32[16.7 µM] | 2
CC(=O)N(C)C[C@@H]1Oc2cc(C#C[C@@H](C)O)ccc2S(=O)(=O)N([C@@H](C)CO)C[C@H]1C | -5[16.7 µM] | -5
CC(=O)N(C)C[C@@H]1Oc2ncc(-c3ccccc3C)cc2C(=O)N([C@@H](C)CO)C[C@@H]1C | 16[16.7 µM] | -26
CN1C(=O)c2cc(NS(C)(=O)=O)ccc2OC[C@H]2O[C@@H](CC(=O)Nc3cccc(F)c3)CC[C@@H]21 | 4[16.7 µM] | 3
CC(C)NC(=O)Nc1ccc2c(c1)C(=O)N([C@H](C)CO)C[C@@H](C)[C@H](CN(C)CC1CCCCC1)O2 | -26[16.7 µM] | -6
C[C@@H]1CN([C@H](C)CO)C(=O)c2cc(C#CC3CCCCC3)cnc2O[C@@H]1CN(C)Cc1cccnc1 | 14[16.7 µM] | 11
Cc1ccccc1S(=O)(=O)N1C[C@@H](O)COC[C@H]2O[C@@H](CC(=O)N3CCN(C)CC3)CC[C@@H]21 | 7[16.7 µM] | 4
C=CCN1C(=O)[C@@]2(O[C@@H](CCn3cc([C@H](O)c4ccccc4)nn3)[C@H]([Si](C)(C)c3ccc(OC)cc3)[C@H]2C)c2cc(N3C(=O)c4cccc5cccc3c45)ccc21 | -19[16.7 µM] | -20
COc1cc2c(cc1OC)CN(C(=O)[C@@H]1[C@H]3C(=O)O[C@H](c4ccccc4)[C@H](c4ccccc4)N3[C@H](c3ccccc3OCCO)[C@@]13C(=O)Nc1ccc(C#CC4(O)CCCCCC4)cc13)CC2 | -68[16.7 µM] | 1
C[C@@H]1CN([C@@H](C)CO)C(=O)c2cc(NS(C)(=O)=O)ccc2O[C@H]1CN(C)S(=O)(=O)c1ccccc1 | 12[16.7 µM] | -4
Cn1cnc(S(=O)(=O)N2C[C@H](O)COC[C@@H]3O[C@@H](CC(=O)NCc4cccc(F)c4)CC[C@H]32)c1 | 8[16.7 µM] | 5
COc1ccc(S(=O)(=O)N[C@@H]2CC[C@H](CCn3cc(-c4cccc(F)c4)nn3)O[C@H]2CO)cc1 | 4[16.7 µM] | 0
COc1ccc(NC(=O)N(C)C[C@H]2Oc3ccc(NC(=O)Nc4ccc(C(F)(F)F)cc4)cc3C(=O)N([C@@H](C)CO)C[C@H]2C)cc1 | -41[16.7 µM] | -10
C[C@@H]1CN([C@H](C)CO)C(=O)c2cc(Br)cnc2O[C@H]1CN(C)C(=O)C1CC1 | -1[16.7 µM] | -11
C[C@@H]1CCCCO[C@H](CN(C)S(=O)(=O)c2ccccc2)[C@H](C)CN([C@@H](C)CO)C(=O)c2cc(NC(=O)C3CCCCC3)ccc2O1 | 11[16.7 µM] | 9
C[C@H]1CN([C@@H](C)CO)C(=O)c2cc(NC(=O)CCCN(C)C)ccc2O[C@@H]1CN(C)Cc1ccc(C(F)(F)F)cc1 | 8[16.7 µM] | 2
COc1ccc(NC(=O)N(C)C[C@@H]2Oc3ccc(NS(C)(=O)=O)cc3CC(=O)N([C@@H](C)CO)C[C@H]2C)cc1 | 28[16.7 µM] | -12
C[C@H](CO)N1C[C@H](C)[C@H](CN(C)C(=O)Nc2cccc3ccccc23)Oc2c(NC(=O)NC3CCCCC3)cccc2C1=O | -15[16.7 µM] | -2
CO[C@H]1CN(C)C(=O)c2ccc(NC(=O)c3cc(C)on3)cc2OC[C@@H](C)N(C(C)=O)C[C@@H]1C | -2[16.7 µM] | 2
C[C@H]1CCCCO[C@@H](CN(C)Cc2ccc(C(=O)O)cc2)[C@@H](C)CN([C@@H](C)CO)C(=O)c2cc(NS(C)(=O)=O)ccc2O1 | 19[16.7 µM] | 0
C[C@H](CO)N1C[C@H](C)[C@H](CN(C)S(C)(=O)=O)Oc2cc(-c3ccccc3)ccc2S1(=O)=O | 28[16.7 µM] | 1
O=C(C[C@H]1CC[C@@H](NC(=O)C2CC2)[C@H](CO)O1)NCCCN1CCOCC1 | -8[16.7 µM] | -4
CO[C@@H]1CN(C)C(=O)c2cc(NS(=O)(=O)c3ccccc3C)ccc2OC[C@H](C)N(C)C[C@H]1C | 1[16.7 µM] | -2
CO[C@@H]1CN(C)C(=O)c2cc(NC(C)=O)ccc2OC[C@H](C)N(C(=O)CN(C)C)C[C@H]1C | -1[16.7 µM] | -4
C[C@@H]1CCCCO[C@@H](CN(C)S(=O)(=O)c2cn(C)cn2)[C@H](C)CN([C@H](C)CO)C(=O)c2cc(NS(=O)(=O)c3cn(C)cn3)ccc2O1 | -1[16.7 µM] | -1
C[C@H]1CN([C@@H](C)CO)C(=O)c2cccc(NC(=O)C3CCCCC3)c2O[C@H]1CN(C)Cc1ccc(C(=O)Nc2ccccc2N)cc1 | 27[16.7 µM] | 3
CC(C)NC(=O)Nc1ccc2c(c1)CC(=O)N([C@@H](C)CO)C[C@H](C)[C@H](CN(C)S(C)(=O)=O)O2 | 7[16.7 µM] | 3
Cc1noc(C)c1S(=O)(=O)Nc1ccc2c(c1)C(=O)N([C@@H](C)CO)C[C@@H](C)[C@H](CN(C)Cc1ccc3c(c1)OCO3)OCCCC[C@@H](C)O2 | 18[16.7 µM] | 13
O=C(C[C@H]1CC[C@H]2[C@@H](COC[C@H](O)CN2C(=O)C2CC2)O1)NCc1ccccc1Cl | 8[16.7 µM] | 33
C[C@@H]1CCCCO[C@H](CN(C)S(=O)(=O)c2ccc(Cl)cc2)[C@H](C)CN([C@H](C)CO)C(=O)c2cc(NS(=O)(=O)c3ccc(F)cc3)ccc2O1 | 12[16.7 µM] | 3
C[C@@H]1CN([C@@H](C)CO)S(=O)(=O)c2ccc(Br)cc2O[C@@H]1CN(C)C(=O)CN(C)C | -54[16.7 µM] | 7

2 of the compounds above, with values under each structure:
Fields – HIV Env fusion, Yeast UUG start
CO[C@@H]1CN(C)C(=O)c2cc(NS(=O)(=O)c3ccccc3C)ccc2OC[C@H](C)N(C)C[C@H]1C
    1[16.7 µM], -2
CO[C@@H]1CN(C)C(=O)c2cc(NC(C)=O)ccc2OC[C@H](C)N(C(=O)CN(C)C)C[C@H]1C
    -1[16.7 µM], -4

(listing goes on)
structure | HIV Env fusion | Yeast UUG start
C[C@@H]1CCCCO[C@@H](CN(C)Cc2ccc(Cl)c(Cl)c2)[C@@H](C)CN([C@@H](C)CO)C(=O)c2cc(NC(=O)Nc3ccccc3)ccc2O1 | 13[16.7 µM] | 5
C[C@@H]1CN([C@H](C)CO)C(=O)Cc2cc(NC(=O)C3CCCCC3)ccc2O[C@@H]1CN(C)C | 17[16.7 µM] | 12
CO[C@H]1CN(C)C(=O)c2cc(NC(=O)Nc3ccccc3)ccc2OC[C@H](C)NC[C@@H]1C | -15[16.7 µM] | -6
Cc1noc(C)c1NC(=O)Nc1ccc2c(c1)C(=O)N([C@H](C)CO)C[C@H](C)[C@@H](CN(C)S(=O)(=O)c1c(C)noc1C)OCCCC[C@H](C)O2 | 15[16.7 µM] | 18
COc1ccc(NC(=O)N(C)C[C@H]2OCCCC[C@H](C)Oc3ccc(NC(=O)Cc4ccccc4)cc3C(=O)N([C@H](C)CO)C[C@@H]2C)cc1 | -72[16.7 µM] | 11
CC(=O)N(C)C[C@H]1Oc2cc(C#CCC(C)C)ccc2S(=O)(=O)N([C@H](C)CO)C[C@@H]1C | -25[16.7 µM] | 16
C[C@@H]1CN([C@@H](C)CO)C(=O)CCCn2cc(nn2)CO[C@@H]1CN(C)Cc1ccc(-c2ccccc2)cc1 | 2[16.7 µM] | -6

Screening data: PubChem, Broad Institute
